Assay outcomes deposited in PubChem by ICCB-Longwood Screening Facility, Harvard Medical School.
HCMV NEC inh: inhibitors of HCMV UL50-UL53 interaction, biochemical, HTRF. 190,000 compounds, 0.15% hits. HCMV UL50-UL53 nuclear egress complex (human cytomegalovirus). normalized percent inhibition. inhibition, % (test concentration not listed);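 active means both replicates at 50% or more, plus weaker picks with an unusually low signal ratio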;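 further: stock transfer was 100 nL into about 20 µL; 0% = negative control wells and 100% = wells with untagged competitor protein; inactives centre near -12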
GIV Gai3 FP: inhibitors of GIV peptide binding to Galpha-i3, primary screen, biochemical, fluorescence polarization, FITC-GIV GBA peptide, rat Galphai3 | 90 min; active compounds read low; scaled: aluminum fluoride 0%, vehicle 100% | AID 1224905, 2016 | 210,000 compounds, 0.42% hits | Guanine nucleotide-binding protein G(i) subunit alpha-3 (Rattus norvegicus), P08753 | percent of control (FP), % (no concentration beside the values);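 active means replicate mean at 85% of control or lower, very high polarization wells dropped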;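 further: wells of about 15 µL received 100 nL stock; the first replicate is given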
Target sequence (P08753 whole entry, looked up): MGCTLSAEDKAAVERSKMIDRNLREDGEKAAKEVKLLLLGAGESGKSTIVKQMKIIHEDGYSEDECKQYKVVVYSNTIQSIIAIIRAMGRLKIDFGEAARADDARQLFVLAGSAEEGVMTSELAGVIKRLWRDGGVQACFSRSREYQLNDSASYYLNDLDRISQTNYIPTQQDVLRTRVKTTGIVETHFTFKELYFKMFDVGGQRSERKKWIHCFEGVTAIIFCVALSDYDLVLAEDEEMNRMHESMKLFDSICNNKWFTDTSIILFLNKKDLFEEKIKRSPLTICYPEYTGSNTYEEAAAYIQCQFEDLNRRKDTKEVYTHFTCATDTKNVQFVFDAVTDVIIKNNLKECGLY
Sa growth 42C: S. aureus growth inhibition at 42 and 30 °C, primary screen, LtaS inhibitor project, RN4220, two temperatures; relative growth, % (test concentration not listed); OD600, 20 h, 42 °C; active compounds read low; 170,000 compounds, 0.53% hits; AID 720641, 2013;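 active means growth at 42 °C up to 50% and 20 or more points under that at 30 °C, or under 10% at both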;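 further: 300 nL library stock went into each well; scaled to the means of positive and negative controls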
Sa growth 42C second temp: second read-out of Sa growth 42C, no call of its own (marks repeat the call); relative growth, %; measured here: growth at 30 °C;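 optical density after 20 h as mean of two plates; 100% = untreated growth and lower means inhibition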
An asterisk follows results filed as active; nt = not tested or not shown.

SMILES	HCMV NEC inh	GIV Gai3 FP	Sa growth 42C	Sa growth 42C second temp
CC1=C(C#N)C(c2c[nH]c3ccccc23)C2=C(CCCC2=O)N1 (stereo not given)	-29	107	88	78
O=C(Nc1ccccc1)N1CCCCC1	-39	96	101	100
O=C(O)CCC(=O)Nc1ccc(O)c(C(=O)O)c1	0	nt	92	96
CCOC(=O)CC1C(=O)C=Nc2ccccc21 (stereo not given)	-19	104	nt	nt
O=C(COc1cc2oc(=O)cc(-c3ccccc3)c2cc1Cl)NC1CC1	-27	nt	93	91
OC1(c2cc(C(F)(F)F)cc(C(F)(F)F)c2)CC1	-15	97	86	95
O=C1COc2ccc(S(=O)(=O)N3CCN(C(=O)CNC(=O)c4ccccc4)CC3)cc2N1	-40	105	nt	nt
Cc1ccc(-n2ncc3c(N4CCN(c5ccc(F)cc5)CC4)ncnc32)cc1	nt	105	142	86
COc1cccc(CNC(=O)c2cc(-c3cccs3)nc3ccccc23)c1	-7	104	98	89
Nc1nc2ccccc2n1CCOc1ccccc1	3	nt	69	72
S=C(Nc1ccccc1)N1CCNC2NCCN(C(=S)Nc3ccccc3)C21 (stereo not given)	-18	103	115	84
COc1ccccc1CN1COc2ccc3c(oc(=O)c4ccccc43)c2C1	0	98	123	84
O=C1CCCCCN1Cc1nnc(SCCN2C(=O)c3ccccc3C2=O)o1	-44	nt	71	93
COc1ccc(CN(C)c2nc(C(F)(F)F)nc3ccccc23)c(OC)c1	10	nt	101	92
CCOc1ccccc1NC(=O)CSc1ccc(C)cc1	-12	nt	101	86
Cc1ccc(NC(=O)C(=O)NCc2ccc(Cl)cc2)cc1	6	107	99	94
Cc1nc2ccccc2c(=O)n1-c1ccc(F)c(NC(=O)c2ccco2)c1	-17	104	102	87
CCC(Sc1nc2ncccc2[nH]1)C(=O)NCc1ccco1 (stereo not given)	nt	97	106	87
CN1CCN(CCNC(=O)CN2C(=O)CCn3nc(-c4cn(C)c5ccccc45)cc32)CC1	-19	102	nt	nt
CN(Cc1ccccc1)c1ccc(-c2nc(-c3ccccn3)no2)cc1[N+](=O)[O-]	-14	103	140	81

Molecules listed so far containing a halogen, in the order listed:
SMILES	HCMV NEC inh	GIV Gai3 FP	Sa growth 42C	Sa growth 42C second temp
O=C(COc1cc2oc(=O)cc(-c3ccccc3)c2cc1Cl)NC1CC1	-27	nt	93	91
OC1(c2cc(C(F)(F)F)cc(C(F)(F)F)c2)CC1	-15	97	86	95
Cc1ccc(-n2ncc3c(N4CCN(c5ccc(F)cc5)CC4)ncnc32)cc1	nt	105	142	86
COc1ccc(CN(C)c2nc(C(F)(F)F)nc3ccccc23)c(OC)c1	10	nt	101	92
Cc1ccc(NC(=O)C(=O)NCc2ccc(Cl)cc2)cc1	6	107	99	94
Cc1nc2ccccc2c(=O)n1-c1ccc(F)c(NC(=O)c2ccco2)c1	-17	104	102	87

More structures follow.
SMILES	HCMV NEC inh	GIV Gai3 FP	Sa growth 42C	Sa growth 42C second temp
COc1ccccc1C1CC(c2c(-c3ccccc3)c3cc(Cl)ccc3[nH]c2=O)=NN1C(=O)CCCC(=O)O (stereo not given)	-6	102	nt	nt
Cc1nc2ccccc2c2c1C(=O)N(c1cccc(C(=O)OC(C)C(=O)c3ccccc3)c1)C2=O (stereo not given)	-9	104	nt	nt
Cc1nc(N)nc(C(F)(F)F)c1Br	-12	106	94	87
CCCNC(=O)Oc1noc2ccc(Cl)cc12	1	103	103	96
CO[C@H]1/C=C/O[C@@]2(C)Oc3c(C)c(O)c4c(O)c(c5c(nc6cc(C)ccn65)c4c3C2=O)NC(=O)/C(C)=C\C=C\[C@H](C)[C@H](O)[C@@H](C)C(O)[C@@H](C)[C@H](OC(C)=O)[C@@H]1C (stereo not given in full)	-65	nt	-0.8*	-0.9*
COc1ccc(/C=N/N2CCN(C)CC2)cc1	-12	97	106	114
CC(C)C1CC(C)(C)c2ccc(O)cc21 (stereo not given)	-12	nt	101	92
Cn1cnc2cc(NCc3ccccn3)ccc21	nt	104	75	88
O=C(O)CCCC(=O)NC1=NCCS1	-19	106	98	82
FC(F)(F)c1cnc(NCc2nnc3ccccn23)c(Cl)c1	-8	nt	101	88
CCCCN(CC)S(=O)(=O)c1ccc2oc(C(=O)O)c(C)c2c1	2	nt	110	93
COc1ccc(C(=O)NCC(c2ccc(N(C)C)cc2)N2CCOCC2)cc1 (stereo not given)	nt	107	117	90
Cc1nn(-c2ccccc2)nc1C(=O)NC(=O)N1CCSCC1	-12	103	90	87
COc1cc(OC)c(Nc2c(C(=O)N3CCCCC3)cnc3ccc(F)cc23)cc1Cl	-25	94	nt	nt
CCOC(=O)c1c(C)oc2c1c(C(c1ccccc1)N1CCOCC1)c(O)c1ccccc12 (stereo not given)	-14	nt	84	68
CCOC(=O)c1sc2ncn(/N=C/c3ccc4c(c3)OCCO4)c(=O)c2c1C	nt	104	105	87
Cc1cc(C(=O)NCc2ccc(C)o2)n[nH]1	-22	101	93	90
Cc1ccc(C)c(-c2n[nH]c(=O)c3ccccc23)c1	-20	nt	90	89
CCC(C(=O)N1CCN(c2cccc(C(F)(F)F)c2)CC1)c1ccccc1 (stereo not given)	-7	102	96	91
O=C(Nc1nccs1)C(c1ccccc1)N1CCOCC1 (stereo not given)	-15	106	121	95
COc1cccc(CNC(=O)C2=C(C)C(=O)OC23CCCCC3)c1OC	-15	102	99	88
Cc1cccc(NS(=O)(=O)c2c(C)n[nH]c2C)c1	nt	103	77	79
O=C(NCCCn1ccc2ccccc21)c1cnccn1	-23	nt	87	81
CC(C)CCNC(=O)C1(C)CCC(=O)N1CCCOC(C)C (stereo not given)	-6	103	nt	nt
CCOc1ccc(NC2=NC(C(=O)NCc3ccccc3)CC(=O)N2)cc1 (stereo not given)	12	nt	78	101
Cc1ccc(S(=O)(=O)Nc2ccc(S(=O)(=O)Nc3nccc(C)n3)cc2)cc1	-1	nt	99	85
O=C(O)CC1SC(Cc2ccc(Cl)cc2)=NC1=O (stereo not given)	-20	97	91	73
CCN(C(=O)CSc1nnc(-c2ccccc2Br)o1)c1nc(C)cs1	-1	102	109	81
COc1cccc2c1CC/C(=C\c1ccc(N(C)C)cc1)C2=O	-19	-69*	96	102
CCc1ccc(N2C(=O)/C(=C/C=C/c3ccco3)N(CC(=O)OC)C2=S)cc1	-7	195	81	36
Cc1[nH]c2ccccc2c1C(OC(C)C)c1ccccn1 (stereo not given)	1	nt	84	95
Cc1ccc(S(=O)(=O)c2cn(Cc3ccccc3)c3cc(N4CCCC4)c(F)cc3c2=O)c(C)c1	nt	103	110	87
COc1cc(OC)c(NC(=O)CCc2c(C)nc3c(c2C)c(=O)n(C)c(=O)n3C)cc1Cl	-24	98	92	87
CCOC(=O)C1CCN(CCCCOc2ccc(C#N)cc2)CC1	-30	104	99	95
CCC(CC)C(=O)NCc1nc2cccnc2n1Cc1ccc(F)cc1	nt	105	115	87
CC(C)c1cc(C(=O)N2CCN(C(c3ccccc3)c3ccccc3)CC2)no1	nt	103	94	97
CCOc1cc2c3c(c1)C1(OCCO1)C(=O)N3C(C)(C)CC2C (stereo not given)	-4	99	106	80
Cc1ccc(N2CCN(C(=O)c3cccc(N4CCCS4(=O)=O)c3)CC2)c(C)c1	1	101	nt	nt
Cc1nc(SCc2cccc(Cl)c2)nc2c1CCCC2	12	99	116	110
O=c1[nH]cc(-n2c(=O)c3cc4c(=O)n(-c5c[nH]c(=O)[nH]c5=O)c(=O)c4cc3c2=O)c(=O)[nH]1	-30	97	93	87
O=C(Nc1ccccc1)c1cc2c(-c3ccccc3)nn(-c3ccccc3)c2s1	-29	102	93	91
CSc1nn2c(C(F)(F)F)cc(C(F)(F)F)nc2c1C#N	-12	103	85	84
CN(C)C(=S)NC(C)(C)C	8	106	105	99
Cc1cc(OC(C)C(=O)Oc2cccc(-n3cnnn3)c2)ccc1Cl (stereo not given)	-20	104	nt	nt
CC(C)(C)c1ccc(S(=O)(=O)N2CCCCC2C(=O)N2CCN(c3ccc(F)cc3)CC2)cc1 (stereo not given)	-18	106	nt	nt
Cn1c(C(=O)OCC(=O)NCc2cccs2)cc2sccc21	-6	99	96	89
C=CCOc1ccc(C2CC(=O)Nc3nc(N)[nH]c(=O)c32)cc1OC (stereo not given)	-15	99	nt	nt
COc1ccc(OC)c(NC(=O)Cn2c(C)cc(C)c(S(=O)(=O)c3ccc(Cl)cc3)c2=O)c1	7	105	nt	nt
O=C(O)C1CN(Cc2ccccc2)C1	-3	106	105	90
CC1=C(C(=O)OCc2ccccc2)C2(O)C(=O)c3ccccc3C2(O)N1 (stereo not given)	66*	nt	90	91
CCC(=O)Oc1cc2c(C(=O)OC(C)C)c(C)oc2cc1Br	-19	102	85	79
CCSc1nnc(NC(=O)C2CC(=O)N(c3ccccc3OC)C2)s1 (stereo not given)	-12	nt	101	90
O=C(Oc1ccc(Cl)c(Cl)c1)c1ccccc1F	-30	99	105	92
Cc1onc(-c2ccccc2)c1-c1csc(Nc2ccccc2Cl)n1	-32	101	107	76
O=C(CSc1nnc(-c2cc3ccccc3[nH]2)o1)Nc1ccc2c(c1)OCO2	16	107	nt	nt
Cc1cccc(NS(=O)(=O)c2ccc3[nH]c(=O)ccc3c2)c1C	nt	114	80	89
N#Cc1ccccc1Sc1ccccc1C(=O)N1CCN(CC(=O)N2CCCC2)CC1	3	nt	104	96
Cc1ccc(C)c(CN2C(=O)C(C(C)C(=O)NCCc3ccc(Cl)cc3)Sc3ccccc32)c1 (stereo not given)	nt	103	93	89
COc1cccc2c1cc1c(=O)n(CC(=O)N3CCN(c4ccccc4)CC3)nc(C)n12	-16	96	129	91
O=c1cc(N2CCCCC2)[nH]c(=O)n1Cc1ccc(F)cc1	3	98	83	93

Next records
SMILES	HCMV NEC inh	GIV Gai3 FP	Sa growth 42C	Sa growth 42C second temp
O=C(NC1CCCCCCC1)c1nnc(-c2cccc(Cl)c2)o1	nt	101	74	70
COC(=O)CSc1cc(C)nc(SC)n1	2	102	95	96
O=C(O)Cc1csc(Nc2ccccc2F)n1	-32	105	95	87
CCOc1ccc(/C=c2/sc3n(c2=O)C(c2cccs2)C(C(=O)OC)=C(C)N=3)cc1OC(C)=O (stereo not given)	-8	110	nt	nt
COc1ccc(C2CCCCCN2C(=O)CCn2c(=O)oc3ccccc32)cc1 (stereo not given)	-17	nt	101	86
CC(=O)Nc1ccc(NC(=O)Cn2cnc3c(oc4ccccc43)c2=O)cc1	nt	100	107	87
CCn1c(=O)cc(SCC(=O)NCCCN2CCN(c3ccc(F)cc3)CC2)c2ccccc21	-11	99	114	80
O=C(O)c1ccccc1NC(C(=O)O)c1ccccc1 (stereo not given)	2	102	111	92
O=C(O)COc1cccc(/C=C2/SC(=Nc3ccccc3Cl)NC2=O)c1	-42	102	nt	nt
Cc1ccc(OCC(=O)Nc2nonc2-c2ccc(Br)cc2)cc1	-13	105	108	86
CC(=O)Nc1sc(C)c(C)c1SC#N	-35	99	nt	nt
Cc1cc(NC(=O)COc2coc(CN3CCN(c4ccc(F)cc4)CC3)cc2=O)no1	-11	98	85	86
O=C(O)c1ccc2c(c1)C1C3CCC(C3)C1C(c1ccccc1)N2 (stereo not given)	1	nt	84	88
CC(C)Cn1cnc2scc(-c3ccccc3)c2c1=O	-16	103	nt	nt
CCOc1ccccc1N(C)C(=O)c1cc2c(=O)n(CC)c3ccccc3c2s1	nt	97	98	96
O=C(COC(=O)c1ccco1)Nc1cccc2ccccc12	-13	102	97	74
Clc1ccccc1CNc1nn2nnnc2c2ccccc12	-30	98	nt	nt
CCOC(=O)c1c(C)[nH]c(C)c1C(=O)COC(=O)C1CC2CCCC(C1)C2=O (stereo not given)	-5	nt	80	92
COc1cc2c(C(=O)N3CCN(c4cccc(C(F)(F)F)c4)CC3)cn(CC(C)C)c(=O)c2cc1OC	nt	98	87	88
COc1ccccc1C1=NN(C(=O)CCC(=O)O)C(c2ccccc2)C1 (stereo not given)	-13	105	nt	nt

Grouped by structure, those above containing a tert-butyl group (2)
SMILES	HCMV NEC inh	GIV Gai3 FP	Sa growth 42C	Sa growth 42C second temp
CN(C)C(=S)NC(C)(C)C	8	106	105	99
CC(C)(C)c1ccc(S(=O)(=O)N2CCCCC2C(=O)N2CCN(c3ccc(F)cc3)CC2)cc1 (stereo not given)	-18	106	nt	nt

(listing goes on)
SMILES	HCMV NEC inh	GIV Gai3 FP	Sa growth 42C	Sa growth 42C second temp
Cc1c(CNCc2ccc(OC(C)C)cc2)c(C(=O)O)c(C)n1Cc1ccc(Cl)cc1	8	106	95	103
CCCS(=O)(=O)c1nc(S(=O)(=O)c2ccc(C)cc2)c(NCC(C)C)s1	9	107	100	105
OC(CN=Cc1ccccc1)c1ccccc1 (stereo not given)	-10	104	102	118
O=S(=O)(N1CCCCC1)N1CCNCC1	-6	96	97	82
CCc1ccc(-c2ccc(=O)[nH]n2)cc1S(=O)(=O)Nc1ccc(Br)c(C)c1	-22	102	nt	nt
O=c1c(S(=O)(=O)c2ccccc2)cn(Cc2ccccc2)c2cc(N3CCOCC3)c(F)cc12	nt	102	97	83
